# Six1-Eya2 inh – Six1/Eya2 interaction inhibition. Q15475+O00167. AlphaScreen GST-Six1/His-Eya2 binding, biochemical; active compounds read low; control for the full effect not named in the record. activity change, % (test concentration not listed). 360,000 tested, 0.56% active. AID 651725; in the data active = activity change below about -65%; inconclusive = about -30% to -65%; inactive = above about -30%; also: % is scaled to controls: 0 for no effect and ±100 for the full control effect
# Target sequence (O00167 whole entry, looked up): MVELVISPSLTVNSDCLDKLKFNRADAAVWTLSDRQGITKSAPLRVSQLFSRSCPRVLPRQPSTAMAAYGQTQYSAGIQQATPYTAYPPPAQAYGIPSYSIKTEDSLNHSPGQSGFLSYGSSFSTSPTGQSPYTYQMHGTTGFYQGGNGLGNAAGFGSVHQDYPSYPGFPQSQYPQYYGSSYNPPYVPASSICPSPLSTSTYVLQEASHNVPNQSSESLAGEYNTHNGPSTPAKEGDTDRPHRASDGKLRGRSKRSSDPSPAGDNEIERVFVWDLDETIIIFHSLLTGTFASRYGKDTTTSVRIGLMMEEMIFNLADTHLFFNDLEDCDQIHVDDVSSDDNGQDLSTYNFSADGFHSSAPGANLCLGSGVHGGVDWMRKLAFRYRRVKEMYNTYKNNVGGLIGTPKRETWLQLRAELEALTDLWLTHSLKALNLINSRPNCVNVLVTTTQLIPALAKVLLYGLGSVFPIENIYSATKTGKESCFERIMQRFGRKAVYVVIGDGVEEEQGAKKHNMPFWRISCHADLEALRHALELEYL
# Target sequence (Q15475 whole entry, looked up): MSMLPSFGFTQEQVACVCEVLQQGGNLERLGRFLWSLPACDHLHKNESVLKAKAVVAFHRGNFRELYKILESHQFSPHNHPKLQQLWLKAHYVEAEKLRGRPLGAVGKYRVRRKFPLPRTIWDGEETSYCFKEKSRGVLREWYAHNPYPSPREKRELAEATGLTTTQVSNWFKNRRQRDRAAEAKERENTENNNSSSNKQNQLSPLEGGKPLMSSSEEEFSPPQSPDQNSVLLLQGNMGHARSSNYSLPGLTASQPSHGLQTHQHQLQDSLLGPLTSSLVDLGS
#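 Six1/Eya2 binding was read as AlphaScreen signal after compounds were pinned into GST-Six1 plus His-tagged Eya2 (5X stock 250/500 nM) in pH 8.0 Tris/NaCl/TCEP buffer, beads added, then incubated 1 h, 37 C, dark.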
# D2 PAM – human D2 receptor positive allosteric modulation; DiscoveRx D2 beta-arrestin cells, luminescence, 90 min; 100% = 57 uM dopamine signal; 360,000 tested, 0.23% active; AID 624464; potentiation, % (no concentration beside the values); P14416; active = potentiation of 50% or more; inconclusive = 30% to 50%; inactive = 30% or less;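 also: compound concentration not given in the record; tested on top of an EC20 dose of dopamine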
#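 PathHunter D2 cells, attached overnight at 37 deg C, received compound in DMSO plus dopamine at EC20 (50 nM final) for 90 min at 37 deg C. Beta-arrestin recruitment was read as luminescence after 1 h with detection reagent at ambient temperature.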
# CtBP-E1A blk – CtBP/E1A binding inhibition | AlphaScreen GST-E1A/His-CtBP binding, 1536-well; active compounds read low; control for the full effect not named in the record | activity change, % (no concentration beside the values) | 340,000 tested, 0.49% active | AID 651724; in the data active means activity change below about -65%; inconclusive means about -30% to -65%; inactive means above about -30%; also: % is scaled to controls: 0 for no effect and ±100 for the full control effect
#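 Steps: dispense buffer (Tris pH 8.0, NaCl 300 mM, TCEP 1 mM, BSA, Tween 20); add 5X protein mix (GST-E1A, His-CtBP, 125 nM each); pin 23 nL compound; 2 h at 37 °C, dark; add 5X beads (50 ug/mL); 1 h; read.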
# TRPML1 ag – activates the human TRPML1 channel; activation, % (no concentration beside the values); Q9GZU1; 410,000 tested, 0.12% active; TRPML1-expressing cells, Ca2+ dye fluorescence, FDSS; host cell line not named in the record; reference of the full effect not given here; in the data active = activation above about 50%; inconclusive = about 30% to 50%; inactive = below about 30%; also: 0% is about no effect; the text of the record puts the active cut at 80%
#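 Cells: TRPML1-DL, 1X Tet inducer, ~16 h at 37 degrees C/5% CO2. Dye: ABD Ca8 no-wash + quencher, 45-90 min RT. Read: 10 s baseline, compound add, 110 s agonist phase; 54-4 EC80 (4uM final), 110 s antagonist phase.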
# D2 ag – human D2 receptor agonism in beta-arrestin assay | DiscoveRx PathHunter D2 beta-arrestin, luminescence, 90 min; 100% = 57 uM dopamine signal | 360,000 tested, 0.084% active | activation, % (no concentration beside the values) | P14416; in the data active = activation above about 40%; inconclusive = about 15% to 40%; inactive = below about 15%; also: compound concentration not given in the record; the text of the record calls up to 30% inactive
#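 DiscoveRx PathHunter D2 beta-arrestin cells (2,100/well) attached overnight, then compound-stimulated 90 min at 37 C in HBSS/10 mM HEPES/0.1% Tween-20 buffer; beta-galactosidase complementation read by luminescence after 1 h at ambient temperature. Dopamine 57 uM final (EC100) as control.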
# PINK1 expr mod – PINK1 expression modulation | PINK1 immunofluorescence, high-content cytometry, 24 h | Potency, µM (series often up to 76.6 µM), for inactives: at the top dose activation (PINK1 increase), actives largely listed as activators | 410,000 tested, 0.2% active | AID 624263; active = well fitted activation curve with a large enough effect; inconclusive = small, poorly fitted or top-dose-only effect; inactive = flat fitted curve, though single readings scatter; cell line not stated here;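 also: potency is read from the fitted curve at half-maximal effect; % of control where 0% means no effect; nearly all actives have a fitted effect of over 65% in size; a mitochondrial uncoupler was the plate control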
#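 Measures PINK1 amount and localization on or inside mitochondria by immunofluorescence. Stable cells get compounds at 5 concentrations for 24 hours before fixation and staining; CCCP controls included.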
# Numbers without * were called inactive; nt = no result given; & = joins results of further samples; [ ] = dose if it differs, or a comment.
SMILES,Six1-Eya2 inh,D2 PAM,CtBP-E1A blk,TRPML1 ag,D2 ag,PINK1 expr mod
COc1c(S(=O)(=O)N2CCN(c3ccc(F)cc3)CC2)ccc(Cl)c1Cl,-5,-7,-5,0.4,1.1,-2.8%[38.3 µM]
Cc1cc(NC(=O)COC(=O)CCNS(=O)(=O)c2cccc(C(F)(F)F)c2)no1,4,-1,2,-1.3,-1.3,0.6%
CCNC(=O)CSc1nnc(-c2ccccc2Br)n1-c1cccc(C(F)(F)F)c1,-1,-8,nt,0.2,-3.9,4.0%
CCOCCOC(NC(=O)c1ccccc1)(C(F)(F)F)C(F)(F)F,9,-3,-3,1.0,1.0,0.6%
O=P(c1ccccc1)(c1ccccc1)c1ccccc1C(Br)Br,7,-10,-13,-0.8,-0.2,-0.5%
CC1(C)C2CCC1(CS(=O)(=O)Nc1ccc(S(=O)(=O)N3CCCC3)cc1)C(=O)C2 (configuration not stated),2,-7,0,0.2,1.5,1.0%
C=CCn1c(SCC(=O)Nc2nc(C)cs2)nnc1C(NC(=O)c1ccccc1)C(C)C (configuration not stated),-2,-14,0,0.1,-3.4,nt
CN(CC(=O)Nc1ccc(Cl)c(C(F)(F)F)c1)C(=O)C1CC(=O)N(Cc2ccco2)C1 (configuration not stated),2,-1,3,-0.5,-3.5,-0.4%
COC(=O)c1ccc(Sc2ccccc2NS(=O)(=O)c2ccc(OC)cc2)nc1,7,-3,6,-0.9,-1.5,-0.5%
CCCCNC(=O)Cn1cnc2sc(C)c(S(=O)(=O)N3CCN(c4ncccn4)CC3)c2c1=O,-5,-3,2,0.5,0.8,0.1%
O=C(COc1cc(Cl)ccc1Cl)Nc1nnc(C2CC2)s1,1,-3,1,0.1,-1.4,18%
Cn1cc(-c2nnnn2-c2ccc(Cl)cc2)c(C(F)(F)F)n1,8,6,11,0.0,14,-3.7%
COc1ccc(NC(=O)c2ccc(C#CC(C)(C)O)cc2)cc1,2,-4,1,0.2,2.0,1.4%
CC(C)C[C@H](NC(=O)[C@H](Cc1ccccc1)n1c(=O)[nH]c2ccccc2c1=O)C(=O)N1CCC(C(=O)O)CC1,9,-31,-3,nt,-4.8,0.4%
Cc1cc(C)cc(NS(=O)(=O)c2ccc(NC(=S)Nc3ccccc3)cc2)c1,-4,-7,16,-0.2,-0.5,5.9%
O=C(CSc1ccccc1)Nc1ccc(C(=O)Nc2ccc(O)cc2)cc1,-7,-4,-2,0.3,0.9,9.7%
Cc1ccc(S(=O)(=O)N2[C@@H](c3ccc(C#N)cc3)C(C(=O)O)=C[C@H]2CC2CCCC2)cc1,-1,nt,-1,-0.4,0.7,1.1%
CCc1cc2c(SCC(=O)N3CCCC3=O)ncnc2s1,-1,-6,-2,2.1,0.9,0.0%
CC1=C(C(=O)N2CCCCCC2)CC(CC(=O)NCC2CCCCC2)C(=O)N1Cc1ccc(F)cc1 (configuration not stated),19,nt,0,-0.9,nt,0.2%
Cc1cc(NCc2ccccc2)nc(N2CCOCC2)n1,-2,-9,-1,-0.3,0.9,2.7%

# Results in TRPML1 ag, for some of the entries so far:
Molecule	TRPML1 ag
O=C(COc1cc(Cl)ccc1Cl)Nc1nnc(C2CC2)s1	0.1
CCCCNC(=O)Cn1cnc2sc(C)c(S(=O)(=O)N3CCN(c4ncccn4)CC3)c2c1=O	0.5

# 15 entries already listed, ordered by SMILES length, ascending:
SMILES,Six1-Eya2 inh,D2 PAM,CtBP-E1A blk,TRPML1 ag,D2 ag,PINK1 expr mod
Cc1cc(NCc2ccccc2)nc(N2CCOCC2)n1,-2,-9,-1,-0.3,0.9,2.7%
CCc1cc2c(SCC(=O)N3CCCC3=O)ncnc2s1,-1,-6,-2,2.1,0.9,0.0%
O=C(COc1cc(Cl)ccc1Cl)Nc1nnc(C2CC2)s1,1,-3,1,0.1,-1.4,18%
O=P(c1ccccc1)(c1ccccc1)c1ccccc1C(Br)Br,7,-10,-13,-0.8,-0.2,-0.5%
COc1ccc(NC(=O)c2ccc(C#CC(C)(C)O)cc2)cc1,2,-4,1,0.2,2.0,1.4%
CCOCCOC(NC(=O)c1ccccc1)(C(F)(F)F)C(F)(F)F,9,-3,-3,1.0,1.0,0.6%
O=C(CSc1ccccc1)Nc1ccc(C(=O)Nc2ccc(O)cc2)cc1,-7,-4,-2,0.3,0.9,9.7%
COC(=O)c1ccc(Sc2ccccc2NS(=O)(=O)c2ccc(OC)cc2)nc1,7,-3,6,-0.9,-1.5,-0.5%
CCNC(=O)CSc1nnc(-c2ccccc2Br)n1-c1cccc(C(F)(F)F)c1,-1,-8,nt,0.2,-3.9,4.0%
C=CCn1c(SCC(=O)Nc2nc(C)cs2)nnc1C(NC(=O)c1ccccc1)C(C)C (configuration not stated),-2,-14,0,0.1,-3.4,nt
CC1(C)C2CCC1(CS(=O)(=O)Nc1ccc(S(=O)(=O)N3CCCC3)cc1)C(=O)C2 (configuration not stated),2,-7,0,0.2,1.5,1.0%
CN(CC(=O)Nc1ccc(Cl)c(C(F)(F)F)c1)C(=O)C1CC(=O)N(Cc2ccco2)C1 (configuration not stated),2,-1,3,-0.5,-3.5,-0.4%
CC1=C(C(=O)N2CCCCCC2)CC(CC(=O)NCC2CCCCC2)C(=O)N1Cc1ccc(F)cc1 (configuration not stated),19,nt,0,-0.9,nt,0.2%
Cc1ccc(S(=O)(=O)N2[C@@H](c3ccc(C#N)cc3)C(C(=O)O)=C[C@H]2CC2CCCC2)cc1,-1,nt,-1,-0.4,0.7,1.1%
CC(C)C[C@H](NC(=O)[C@H](Cc1ccccc1)n1c(=O)[nH]c2ccccc2c1=O)C(=O)N1CCC(C(=O)O)CC1,9,-31,-3,nt,-4.8,0.4%

# (continued)
SMILES,Six1-Eya2 inh,D2 PAM,CtBP-E1A blk,TRPML1 ag,D2 ag,PINK1 expr mod
CC1CC(C)(C)NC(=S)O1 (configuration not stated),8&6,-20&-1,6,-0.3&-0.2,-4.5&-3.0,1.5%&0.1%
O=[N+]([O-])c1ccc(S(=O)(=O)N2CCN=C2SCc2ccc(F)cc2)cc1,-3,16,-6,0.3,5.8,9.6%
Cc1ccc(C(=O)N2CCN(S(=O)(=O)c3ccc(C(C)C)cc3)CC2)s1,-2,-12,-7,4.0,1.1,-5.5%
CCc1nnc(NC(=O)CSc2ncc(-c3ccccc3)n2C)s1,-7,-10,3,0.6,-1.1,-3.4%
CC(=O)Nc1ccc(NCN2C(=O)[C@@H]3[C@H]4CC[C@H](C4)[C@@H]3C2=O)cc1,8,-3,1,1.0,3.8,3.6%
CC(C)C(=O)N=C1SC2CS(=O)(=O)CC2N1Cc1ccc(Cl)cc1 (configuration not stated),8,-5,8,0.4,-3.0,5.5%
O=C(CS(=O)(=O)c1cn(Cc2ccc(F)cc2)c2ccccc12)N1CCCCC1,6,3,-1,-0.4,-1.0,2.0%
O=c1[nH]cc(S(=O)(=O)N2CCN(c3ccccc3F)CC2)c(=O)[nH]1,6,-11,-1,0.1,0.0,2.2%
Cc1ccc(S(=O)(=O)N=Nc2c(O)[nH]c3ccccc23)cc1,6,-18,0,-1.1,-7.4,2.2%
c1ccc(CN2CCOCCOCCOCCOCC2)cc1,5,-3,0,0.1,5.2,-0.5%
COc1ccc(CCNC(=O)COC(=O)c2cc(S(=O)(=O)NCc3ccccc3)ccc2O)cc1OC,-5,-4,-1,1.5,-0.7,0.6%
COc1ccc(C(=O)NNC(=O)CSc2ccccc2)cc1,4,-6,3,-0.3,8.9,0.1%
